HSV replic up = increases HSV replication in cells. HSV replication augmentation in cells, fold increase. 220,000 tested, 0.005% active. maximum fold increase;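 active means peak rise of 1.5-fold or more in the series; inconclusive means self-fluorescent or not available for retest; tested in PC3 cells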;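 further: first round at 10 µM; read as green reporter fluorescence; hits show the peak of a series up to 25 µM; 1 = signal of infected wells without compound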
GALR2 ag = GALR2 (human) receptor agonism; activation, %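 (tested at 5 µM)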; O43603; AID 803; GALR2-expressing cells, agonist activation read-out; 140,000 tested, 0.48% active;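 active means above mean plus 3 SD of all compounds, about 5% in these data, not always enough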;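 further: 0% = vehicle buffer wells and 100% = reference agonist at full effect; tested in CHO reporter cells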
Target sequence (O43603 whole entry, looked up): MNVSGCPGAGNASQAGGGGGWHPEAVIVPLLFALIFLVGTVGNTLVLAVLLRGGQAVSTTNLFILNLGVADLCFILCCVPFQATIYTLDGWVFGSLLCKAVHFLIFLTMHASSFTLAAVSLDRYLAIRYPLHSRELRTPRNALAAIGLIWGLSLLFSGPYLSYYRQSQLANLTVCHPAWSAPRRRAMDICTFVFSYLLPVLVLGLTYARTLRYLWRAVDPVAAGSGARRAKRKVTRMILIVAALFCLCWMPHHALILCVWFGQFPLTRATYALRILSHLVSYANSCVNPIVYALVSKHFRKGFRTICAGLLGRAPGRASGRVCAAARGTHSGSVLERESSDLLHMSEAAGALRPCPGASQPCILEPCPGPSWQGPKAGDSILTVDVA
INS promoter inh = TRM-6 insulin promoter activity inhibition; TRM-6 cells (human fetal islet line), insulin promoter-eGFP reporter, imaging; reporter expression induced with tamoxifen; inhibition, % at 2 µM; 130,000 tested, 0.9% active;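 active means inhibition above the mean plus 3 SD, with well images judged a real hit on visual review, cut at about 60% in these data, passing the limit was not always enough; inconclusive means inhibition over the cutoff but images rejected on review; inactive means inhibition not above the cutoff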
PKD1 kinase inh = blocks activity of human protein kinase D1. Q15139. PKD1 kinase fluorescence polarization assay. inhibition, %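 (about 10 µM by stock and volumes)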. 200,000 tested, 0.056% active. AID 797;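 active means inhibition of 50% or more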;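 further: controls were vehicle for no effect and a reference inhibitor for full effect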
RGS16-Gao = modulates binding between human RGS16 and Galphao; bead-based flow cytometry RGS16-Galphao binding, fluorescence; actives lie on both sides; O15492+P09471; 220,000 tested, 0.38% active; binding response (% of control), % at 10 µM;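 active means below 25% or above 175%, edge rows of some plates excepted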;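 further: Galphao activated by GDP with aluminum fluoride before binding; 100% = wells without compound and 0% = beads without RGS; some results beyond the cut were filed as inactive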
INS promoter inh cell count = recorded beside INS promoter inh, whose call it bears; normalized cell count, %; measured here: cell count, toxicity; reference of the scale not given here;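 cells exposed to compound for 48 h; stained nuclei by imaging scaled within each plate; lower means fewer cells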
HSV replic up primary fold = recorded beside HSV replic up, whose call it bears; fold increase; compound at 10 µM; measured here: primary screen fold increase 10 uM; tested in PC3 cells;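 GFP signal in the first replicate; 1 = infected wells without compound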
* = called active by the depositor; i = inactive; ? = inconclusive; nt = no result given. These rows are one share of the data. The share of hits here may be higher or lower than overall.

entry | SMILES | HSV replic up | HSV replic up primary fold | GALR2 ag | INS promoter inh | INS promoter inh cell count | PKD1 kinase inh | RGS16-Gao
1 | C=COCCn1c(C)c(C(C)=O)c2cc(O)ccc21 | i | 0.91 | nt | nt | nt | 0.7 | 105.1
2 | O=C1NC(=S)NC(=O)C1C1CCCCC1 | i | 0.83 | nt | nt | nt | nt | 100.9
3 | CCOC(=O)C1SC2(C(F)(F)F)CC1(O)c1c(C)cc(C)nc1O2 (centres undefined) | i | 0.99 | -0.5 | 50.0 | 149.2 | 2.7 | 94.6
4 | CC(NC(=O)Cc1cccc2ccccc12)C(=O)N1CCC(=O)CC1 (centres undefined) | i | 0.88 | nt | nt | nt | -1.7 | 100.2
5 | COP(=O)(OC)C(Nc1ccccn1)c1ccccc1 (centres undefined) | i | 1.04 | -0.3 | 3.3 | 91.0 | 1.9 | 44.0
6 | CC(=NC(C)c1ccccc1)c1c(O)[nH]c(=O)[nH]c1=O (centres undefined) | i | 1.04 | -2.1 | -30.8 | 79.3 | -6.8 | 102.6
7 | CCOC(=O)N(c1ccccc1)P1(=S)OCCO1 | i | 0.92 | -1.3 | 33.3 | 82.0 | -4.0 | 93.1
8 | CN1CCN(c2ccc(C(N)=O)cc2N)CC1 | nt | nt | -1.5 | nt | nt | -2.3 | 106.2
9 | CC1N(O)C2CCCCCC2N1O (centres undefined) | i | 0.94 | -3.5 | -27.6 | 107.7 | 3.3 | 101.4
10 | O=c1cc(C(F)(F)F)c2cc3c4c(c2o1)CCCN4CCC3 | ? | nt | 8.8 | -164.4 | 90.0 | 2.0 | 101.5
11 | Cc1ccc(-n2c(C)cc(/C=C3/C(=O)NC(=O)N(Cc4ccco4)C3=O)c2C)cc1 | nt | nt | 0.8 | nt | nt | 0.1 | 108.3
12 | O=C(COc1ccccc1)N1CCN(CCN2C(=O)c3cccc4cccc(c34)C2=O)CC1 | i | 0.84 | nt | nt | nt | 1.7 | 98.9
13 | c1ccc2sc(NC3=NCCN3)nc2c1 | i | 1 | -2.1 | 37.5 | 63.6 | -12.1 | 108.0
14 | COc1ccc(C(=O)C2CCCN(Cc3cccc(C)n3)C2)c(OC)c1 (centres undefined) | i | 0.81 | nt | nt | nt | nt | 94.0
15 | COc1ccc(N2C(=O)NC(=O)/C(=C/c3cccc(OC(=O)c4cccs4)c3)C2=O)cc1Cl | i | 1.02 | -1.9 | -2.6 | 121.8 | -6.4 | 115.1
16 | CC[N+]12CCC(CC1)C(C(O)(c1ccccc1)c1ccccc1)C2 (centres undefined) | i | 1.16 | nt | nt | nt | nt | 100.5
17 | O=C(CN1CCCCC1)c1ccc(F)cc1 | i | 1.12 | nt | nt | nt | nt | 101.2
18 | Cc1ccc2c(c1)CC1(CN2C)C(=O)NC(=O)N(c2cc(C)ccc2C)C1=O (centres undefined) | i | 0.94 | -2.6 | 13.3 | 82.2 | 30.2 | 105.5
19 | CC(C)c1ccc(O)c(CN2CCN(c3ccccc3)CC2)c1 | i | 0.78 | -0.9 | -54.5 | 117.1 | -16.7 | 104.6
20 | OCC1(CO)COC(c2cccnc2)N1 (centres undefined) | i | 0.83 | -1.4 | 54.5 | 86.9 | -11.1 | 103.9
21 | CCCOP(=O)(O)c1c([N+](=O)[O-])cc(C(F)(F)F)cc1[N+](=O)[O-] (tested in a mixture with another compound) | i | 0.7 | -2.2 | -26.7 | 149.6 | -7.6 | 100.2
22 | COc1ccc(C2(C#N)CCN(C)CC2)cc1 | i | 0.97 | -0.8 | 0.0 | 66.4 | 1.0 | 101.5
23 | CC(=O)O[C@@H]1[C@H]2CC[C@@H]3[C@]1(C[C@@H](OC(C)=O)[C@@]1(O)C([C@@H]4O[C@@H]4C1(C)C)[C@]3(C)O)C[C@@]2(C)O (some centres undefined) | i | 0.74 | -1.4 | 20.0 | 145.2 | -5.2 | 104.4
24 | O=C1NC(=O)C(=Cc2coc3ccccc3c2=O)C(=O)N1 | i | 1.19 | nt | 8.1 | 183.7 | -5.0 | 99.2
25 | Cn1cccc1/C=C1\C(=O)NC(=O)N(Cc2ccccc2)C1=O | i | 1.07 | nt | nt | nt | nt | 91.6
26 | C=C1C(=O)O[C@@H]2C[C@@H](C)[C@@H]3C4OC4C(=O)[C@@]3(C)[C@@H](O)[C@H]12 (some centres undefined) | i | 0.45 | nt | nt | nt | nt | 93.3
27 | COCCOC(=O)C1=C(N)Oc2c(c(=O)oc3ccccc23)C1c1ccncc1 (centres undefined) | i | 1.01 | -1.8 | 46.7 | 58.8 | -3.0 | 104.1
28 | CN1C[C@H](CO)C=C2c3cccc4[nH]cc(c34)C[C@H]21 | nt | nt | nt | nt | nt | 20.8 | 90.6
29 | CC(C)COP(=O)(OCC(C)C)C(O)c1cccnc1 (centres undefined) | i | 0.97 | -0.4 | 48.3 | 157.2 | 12.4 | 102.0
30 | CC(C)NS(=O)(=O)c1ccc(OCC(=O)N2CCN(C)CC2)cc1 | i | 1 | -2.2 | nt | nt | -9.0 | 380.8

Among those listed so far, these contain an NH in an aromatic ring.
entry | SMILES | HSV replic up | HSV replic up primary fold | GALR2 ag | INS promoter inh | INS promoter inh cell count | PKD1 kinase inh | RGS16-Gao
6 | CC(=NC(C)c1ccccc1)c1c(O)[nH]c(=O)[nH]c1=O (centres undefined) | i | 1.04 | -2.1 | -30.8 | 79.3 | -6.8 | 102.6
28 | CN1C[C@H](CO)C=C2c3cccc4[nH]cc(c34)C[C@H]21 | nt | nt | nt | nt | nt | 20.8 | 90.6

(cont.)
entry | SMILES | HSV replic up | HSV replic up primary fold | GALR2 ag | INS promoter inh | INS promoter inh cell count | PKD1 kinase inh | RGS16-Gao
31 | CCCCOP(=O)(CN1CCOCC1)OCCCC | i | 0.84 | -1.5 | -10.8 | 211.7 | -3.6 | 123.7
32 | CCN(CC)P(=O)(Oc1ccccc1)Oc1ccccc1 | i | 0.93 | nt | nt | nt | nt | 102.7
33 | O=C(c1ccc(Cl)cc1)C1CCCN(Cc2cccc3cccnc23)C1 (centres undefined) | i | 0.9 | nt | nt | nt | -0.9 | 159.4
34 | Cc1ccc(N/N=C/c2c(O)n(-c3ccccc3)c(=O)[nH]c2=O)cc1 | i | 1.01 | nt | 0.0 | 123.9 | 1.1 | 113.1
35 | CCOC(=O)c1sc(N=Nc2c(O)[nH]c(=O)[nH]c2=O)c(C(=O)OCC)c1C | i | 0.96 | 0.2 | 33.3 | 61.2 | -10.9 | 111.9
36 | COc1ccccc1/C=N/N=C(/N)N[N+](=O)[O-] | i | 1.09 | -2.0 | -34.2 | 108.8 | 2.4 | 110.3
37 | CN1CCC(n2nccc2N)CC1 | i | 0.96 | 0.0 | -15.2 | 66.8 | 6.1 | 105.5
38 | N/C(=N\[N+](=O)[O-])NCCCC(NC(=O)CNC(=O)c1ccccc1)C(=O)O (centres undefined) | i | 1.02 | nt | nt | nt | -4.7 | 101.3
39 | Cc1nn(C)c(C)c1/C=C1/CC2C3CC=C4CC(O)CCC4(C)C3CCC2(C)C1=O (centres undefined) | i | 0.98 | 0.0 | -34.2 | 178.9 | -9.1 | 85.2
40 | CCCCCn1c(=O)c(C(=O)Nc2cnccn2)c(O)c2ccccc21 | i | 0.81 | nt | nt | nt | -1.2 | 106.4

By substructure, the entries above containing four or more nitrogen atoms
entry | SMILES | HSV replic up | HSV replic up primary fold | GALR2 ag | INS promoter inh | INS promoter inh cell count | PKD1 kinase inh | RGS16-Gao
8 | CN1CCN(c2ccc(C(N)=O)cc2N)CC1 | nt | nt | -1.5 | nt | nt | -2.3 | 106.2
13 | c1ccc2sc(NC3=NCCN3)nc2c1 | i | 1 | -2.1 | 37.5 | 63.6 | -12.1 | 108.0
34 | Cc1ccc(N/N=C/c2c(O)n(-c3ccccc3)c(=O)[nH]c2=O)cc1 | i | 1.01 | nt | 0.0 | 123.9 | 1.1 | 113.1
35 | CCOC(=O)c1sc(N=Nc2c(O)[nH]c(=O)[nH]c2=O)c(C(=O)OCC)c1C | i | 0.96 | 0.2 | 33.3 | 61.2 | -10.9 | 111.9
36 | COc1ccccc1/C=N/N=C(/N)N[N+](=O)[O-] | i | 1.09 | -2.0 | -34.2 | 108.8 | 2.4 | 110.3
37 | CN1CCC(n2nccc2N)CC1 | i | 0.96 | 0.0 | -15.2 | 66.8 | 6.1 | 105.5
38 | N/C(=N\[N+](=O)[O-])NCCCC(NC(=O)CNC(=O)c1ccccc1)C(=O)O (centres undefined) | i | 1.02 | nt | nt | nt | -4.7 | 101.3
40 | CCCCCn1c(=O)c(C(=O)Nc2cnccn2)c(O)c2ccccc21 | i | 0.81 | nt | nt | nt | -1.2 | 106.4
